# TRPV1 potentiator – HTS Assay for Compounds that Act as Potentiators of the Vanilloid Receptor 1; 0.02% of 320,000 active; Transient receptor potential cation channel subfamily V member 1 (Homo sapiens), Q8NER1; TRPV1-expressing cells, Fluo-8 calcium influx, capsaicin EC20 potentiation; host cell line not named in the record; control for the full effect not named in the record; AID 540277, 2011; potentiation, % at 8.33 µM; active means potentiation above 80%; inconclusive means 30% to 80%; inactive means below 30%; further: 0% is about no effect
#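 Fluo-8 calcium influx in TRPV1-expressing cells, kinetic read (ex 480/em 520 nm). Compound added and read 3 min for agonist activity, followed by capsaicin at EC20 final and 2 min further read for enhancement.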
# CtBP-E1A blk – qHTS Assay for Inhibitors of the CtBP/E1A Interaction; activity change, % (test concentration not listed); AID 651724, 2012; 0.49% of 340,000 active; AlphaScreen GST-E1A/His-CtBP binding, 1536-well; active compounds read low; control for the full effect not named in the record; CtBP / adenovirus E1A interaction (AlphaScreen); in the data active means activity change below about -65%; inconclusive means about -30% to -65%; inactive means above about -30%; further: on the % scale 0 is the no-effect control and ±100 the full control effect
#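 GST-E1A and His-tagged CtBP (125 nM each as 5X stock) were preincubated with pin-transferred compound for 2 h at 37 °C in the dark, then glutathione donor and nickel acceptor beads were added for 1 h before AlphaScreen reading.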
# TRPML1 blocker – qHTS for Inhibitors of the Human Mucolipin Transient Receptor Potential 1 (TRPML1); TRPML1-inducible cells, Ca2+ dye fluorescence, FDSS; active compounds read low; inhibition of EC80 agonist-evoked calcium signal; 0.02% of 390,000 active; activity change, negative = inhibition, % (test concentration not listed); in the data active means activity change below about -50%; inconclusive means about -30% to -50%; inactive means above about -30%;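 further: stimulus is agonist 54-4 at its EC80 concentration; on the % scale 0 is the no-effect control and ±100 the full control effect; compound concentration not given in the record; the text of the record puts the active cut at -80%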
# Target sequence (Q9GZU1 whole entry, looked up): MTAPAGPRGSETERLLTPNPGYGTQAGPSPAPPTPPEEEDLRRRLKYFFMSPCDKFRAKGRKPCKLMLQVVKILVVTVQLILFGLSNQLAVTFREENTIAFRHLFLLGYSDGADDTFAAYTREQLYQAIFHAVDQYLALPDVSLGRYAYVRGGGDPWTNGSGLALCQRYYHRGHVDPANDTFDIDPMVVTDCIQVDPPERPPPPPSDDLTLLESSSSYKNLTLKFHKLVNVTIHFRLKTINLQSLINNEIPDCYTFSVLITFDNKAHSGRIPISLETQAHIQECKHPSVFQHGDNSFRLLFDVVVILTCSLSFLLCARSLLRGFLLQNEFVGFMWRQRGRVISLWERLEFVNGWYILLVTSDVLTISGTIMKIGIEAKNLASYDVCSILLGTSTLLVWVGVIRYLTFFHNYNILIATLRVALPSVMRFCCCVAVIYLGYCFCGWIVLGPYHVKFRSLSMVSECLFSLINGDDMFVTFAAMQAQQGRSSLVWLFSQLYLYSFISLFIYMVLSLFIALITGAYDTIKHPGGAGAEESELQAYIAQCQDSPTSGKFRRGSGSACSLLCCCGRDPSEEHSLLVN
#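 Calcium fluorescence in TRPML1-DL cells induced overnight with Tet: a 110 s read after compound pin addition, then a 110 s antagonist read after challenge with 54-4 at 4 uM final (EC80).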
# TRPML1 ag – qHTS for Agonists of the Human Mucolipin Transient Receptor Potential 1 (TRPML1) | Mucolipin-1 (Homo sapiens), Q9GZU1 | TRPML1-expressing cells, Ca2+ dye fluorescence, FDSS; host cell line not named in the record; reference of the full effect not given here | activation, % (no concentration beside the values) | 0.12% of 410,000 active | AID 624414, 2012; in the data active = activation above about 50%; inconclusive = about 30% to 50%; inactive = below about 30%; further: 0% is about no effect; the text of the record puts the active cut at 80%
#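 Tet-induced TRPML1-DL cells, 1,500 per well, cultured overnight, were loaded with a no-wash Ca2+ dye for 45–90 min. Calcium fluorescence was recorded on the FDSS for 110 s after compound addition, before the EC80 agonist (4 uM 54-4) was added.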
# D2 PAM – Beta-Arrestin HTS for Positive Allosteric Modulators of the Human D2 Dopamine Receptor: Potentiators; D(2) dopamine receptor (Homo sapiens), P14416; DiscoveRx D2 beta-arrestin cells, luminescence, 90 min; 100% = 57 uM dopamine signal; potentiation, % (test concentration not listed); 0.23% of 360,000 active; active = potentiation of 50% or more; inconclusive = 30% to 50%; inactive = 30% or less;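 further: compound concentration not given in the record; tested on top of an EC20 dose of dopamine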
# Target sequence (P14416 whole entry, looked up): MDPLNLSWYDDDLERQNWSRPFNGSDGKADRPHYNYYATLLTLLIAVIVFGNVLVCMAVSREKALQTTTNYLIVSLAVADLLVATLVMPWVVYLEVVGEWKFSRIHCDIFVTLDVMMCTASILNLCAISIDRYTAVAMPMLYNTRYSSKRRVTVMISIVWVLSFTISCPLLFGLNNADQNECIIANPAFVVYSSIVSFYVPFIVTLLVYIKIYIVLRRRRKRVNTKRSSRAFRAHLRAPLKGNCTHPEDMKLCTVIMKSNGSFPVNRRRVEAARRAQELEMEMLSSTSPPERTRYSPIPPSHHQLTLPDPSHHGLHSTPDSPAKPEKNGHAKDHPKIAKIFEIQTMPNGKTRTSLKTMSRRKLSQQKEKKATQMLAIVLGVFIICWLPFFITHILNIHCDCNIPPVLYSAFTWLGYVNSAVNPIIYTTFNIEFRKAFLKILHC
#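 PathHunter beta-arrestin assay in DiscoveRx D2 cells. Compounds were added with an EC20 of dopamine (50 nM final) for 90 min at 37 deg C. Luminescence was read 1 h after detection reagent, with 57 uM dopamine as the EC100 control.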
# Six1-Eya2 inh – qHTS Assay for Inhibitors of the Six1/Eya2 Interaction; activity change, % (test concentration not listed); 0.56% of 360,000 active; AlphaScreen GST-Six1/His-Eya2 binding, biochemical; active compounds read low; control for the full effect not named in the record; Homeobox protein SIX1 (Homo sapiens) + Protein phosphatase EYA2 (Homo sapiens), …; in the data active = activity change below about -65%; inconclusive = about -30% to -65%; inactive = above about -30%; further: on the % scale 0 is the no-effect control and ±100 the full control effect
#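 Homogeneous AlphaScreen proximity assay pairing GST-Six1 with His-tagged Eya2 (added as 5X mix: 250 nM and 500 nM) in 50 mM Tris pH 8.0, 300 mM NaCl, 1 mM TCEP. Glutathione donor and nickel acceptor beads; 1 h, 37 °C, dark.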
# Numbers without * were called inactive; ? = inconclusive; . = not tested or not shown.
SMILES	TRPV1 potentiator	CtBP-E1A blk	TRPML1 blocker	TRPML1 ag	D2 PAM	Six1-Eya2 inh
O=C(Nc1ccccc1NC(=O)NC1CCCCC1)NC1CCCCC1	10.3	3.4	4.0	-0.1	-8.4	1.5
Cc1ccc(NC(=O)CNc2ccc(OC(C)C)cc2)cc1	-1.1	-6.3	-1.0	-0.3	-6.1	-7.0
COc1ccc(C(CNC(=O)CCOc2ccccc2)N(C)C)cc1 (stereo not drawn)	-10.7	-5.8	4.8	0.1	-20.8	-6.3
O=C(c1ccco1)n1nc(NCc2ccccc2)nc1NCc1ccccc1	7.6	0.7	5.3	2.0	-12.8	5.6
Cc1cc(C)c(OC2(c3ccccc3)OC(=O)c3ccccc32)c(C)c1 (stereo not drawn)	2.7	19.0	-11.6	3.2	-6.5	11.6
CC(C)(C)c1ccc(C(=O)CC(=O)c2cc(Cl)ccc2O)cc1	1.1	2.1	-10.4	-0.7	1.2	-3.7
CC1CN(Cc2nc3c(c(=O)[nH]c(=O)n3C)n2CCCc2ccccc2)CC(C)O1 (stereo not drawn)	-31.4	-5.7	-4.2	-0.3	10.9	5.6
COc1ccc(/C=C/C(=O)NC(=S)N2CCCC(C(N)=O)C2)cc1 (stereo not drawn)	?	-22.1	29.1	0.6	-26.3	-11.5
CCOC(=O)c1c(C)[nH]c(C(=O)OCC(=O)N(C)c2c(N)n(Cc3ccccc3)c(=O)[nH]c2=O)c1C	-11.7	-6.8	6.4	2.6	-1.1	-8.6
C[C@@H]1CN([C@H](C)CO)C(=O)CCCn2cc(nn2)CO[C@H]1CN(C)C(=O)c1ccccc1	.	-2.9	0.9	0.6	-7.7	6.2
Cn1c(=O)c2c(ncn2CC(=O)OCC(=O)NCCc2ccccc2)n(C)c1=O	16.2	5.0	-6.5	-0.2	-10.4	-3.7
Cc1ccc(OCc2n[nH]c(=S)n2Cc2ccccc2)cc1	-3.1	-0.4	-5.3	-0.9	-46.7	-5.1
CCOC(=O)c1ccccc1NC(=O)CSc1nc(N)cc(=O)[nH]1	7.8	5.1	5.3	-0.1	0.8	3.4
O=C(CSc1nc(NS(=O)(=O)c2ccccc2)cc(=O)[nH]1)Nc1ccc(F)cc1	?	8.9	-3.1	-0.8	-6.2	?
Cc1ccc2c(c1)C1CN(C)CCC1N2C(=S)Nc1ccc(OC(F)F)cc1 (stereo not drawn)	3.0	-0.1	5.2	0.6	-11.9	-4.5
CCn1cc(CN2CCCC(C(=O)Nc3ccc(-c4nc5ccccc5[nH]4)cc3)C2)c(C)n1 (stereo not drawn)	5.3	?	-2.8	0.8	-20.5	-26.2
COc1cccc(-c2cnc3c(NC=O)cc(-c4ccc(N5CCN(C)CC5)cc4)cn23)c1	.	-28.8	.	0.4	-10.8	?
Cc1ccc(NC(=O)C(C)N2C(=O)c3ccccc3C2=O)cc1S(=O)(=O)N1CCOCC1 (stereo not drawn)	-9.4	.	8.7	0.4	-5.3	12.9
Cc1cccc(NC(=O)Cc2ccc(Br)cc2)n1	1.2	14.8	-9.8	-0.7	2.1	3.5
Cc1ccc(S(=O)(=O)N2CCOCC2)cc1NC(=O)CNC(C)c1ccccc1 (stereo not drawn)	.	5.9	-10.0	0.1	-22.8	4.4
COC(=O)[C@H](CC(C)C)NC(=O)NCc1ccc(Cl)cc1	-10.1	10.7	-23.3	0.5	-7.0	-2.8
C/C(CC(=O)N(C(C)C)C(C)C)=N\NC(=O)COc1ccc(Br)cc1Br	8.2	-3.3	3.3	1.5	-13.7	6.3
O=C(O)c1ccccc1S(=O)(=O)NCC(O)COc1ccc(Br)cc1 (stereo not drawn)	9.4	12.1	9.9	-0.3	-3.2	2.5
Cc1cccc(N2C(=O)CC(N(C(=O)c3ccco3)c3cccc(C)c3)C2=O)c1 (stereo not drawn)	2.6	2.7	1.9	0.3	0.9	1.8

# Looked up one by one from above, 4 records:
SMILES	TRPV1 potentiator	CtBP-E1A blk	TRPML1 blocker	TRPML1 ag	D2 PAM	Six1-Eya2 inh
Cc1cccc(N2C(=O)CC(N(C(=O)c3ccco3)c3cccc(C)c3)C2=O)c1 (stereo not drawn)	2.6	2.7	1.9	0.3	0.9	1.8
O=C(O)c1ccccc1S(=O)(=O)NCC(O)COc1ccc(Br)cc1 (stereo not drawn)	9.4	12.1	9.9	-0.3	-3.2	2.5
Cc1ccc(S(=O)(=O)N2CCOCC2)cc1NC(=O)CNC(C)c1ccccc1 (stereo not drawn)	.	5.9	-10.0	0.1	-22.8	4.4
COC(=O)[C@H](CC(C)C)NC(=O)NCc1ccc(Cl)cc1	-10.1	10.7	-23.3	0.5	-7.0	-2.8

# Remaining list, next part:
# Screens in order – TRPV1 potentiator | CtBP-E1A blk | TRPML1 blocker | TRPML1 ag | D2 PAM | Six1-Eya2 inh
- Cc1nc(C)c(C(=O)OCC(=O)Nc2ccc(C)c(C)c2)s1
    . | -22.1 | ? | -0.5 | -10.7 | 19.0
- CCCCC1(C)Cc2ccccc2C(=S)N1 (stereo not drawn)
    -9.3 | -15.6 | 1.4 | 0.0 | -19.0 | -25.0
- COc1ccc(NC(=O)CN(C)C(=O)c2cc(S(=O)(=O)N(C)C)ccc2N2CCCC2)cc1
    7.6 | -17.8 | -17.2 | 0.3 | 2.6 | 2.5
- COc1ccc(N(Cc2ccc(N(C)C)cc2)C(=O)c2ccc(S(C)(=O)=O)cc2)cc1
    -36.1 | ? | -0.8 | 1.7 | -11.0 | ?
- CN(C)C(=O)CSc1nc(-c2cccs2)c(-c2cccs2)[nH]1
    10.2 | -8.7 | -0.8 | -0.6 | -4.7 | -19.0
- NS(=O)(=O)c1ccc(CCNC(=O)C(=O)NCC2OCCN2S(=O)(=O)c2ccc(F)cc2)cc1 (stereo not drawn)
    6.9 | 2.6 | -1.4 | -0.7 | -6.8 | 1.7
- Cc1ccc(-n2cc(CNCCc3ncc(C)[nH]3)c(-c3ccc(F)cc3)n2)cc1
    -5.0 | -17.7 | 21.4 | -0.1 | -12.8 | -13.8
- Cc1ccc(S(=O)(=O)N2CCN(C(=O)COC(=O)C3CCC3)CC2)c(C)c1
    20.5 | -0.8 | 8.0 | 1.4 | 2.4 | -0.6
- Cc1ccc(-n2nnnc2SCC(=O)NNC(=O)c2ccco2)cc1C
    -11.1 | 8.8 | -3.3 | 1.1 | -1.0 | 2.4
- O=C(COc1c(Cl)cccc1Cl)NN1C(=O)CSC1=S
    24.6 | . | 19.9 | -0.1 | -11.9 | -16.8
- O=C(COc1cccc(Br)c1)N/N=C/C(=O)c1ccccc1
    0.5 | -4.3 | -3.3 | 1.4 | -6.4 | -11.5
- COc1cc(S(=O)(=O)N2CCC(c3nc4ccccc4s3)CC2)ccc1S(=O)(=O)N1CC(C)CC(C)C1 (stereo not drawn)
    2.0 | -5.9 | -2.9 | 0.8 | -7.2 | -1.6
- Cc1ccc(C)c(CNS(=O)(=O)c2c(C)[nH]c(C)c2C(=O)N2CCCC2)c1
    -0.1 | -0.4 | 6.4 | 0.9 | -9.9 | 3.8
- O=c1oc2cc(OCc3nn[nH]n3)ccc2c2c1CCCC2
    -18.4 | -3.4 | 10.0 | -0.8 | -1.8 | -12.4
- Cc1cc(NC(=O)CC(C)(C)C)nc2c1c(=O)oc1ccccc12
    -28.6 | 6.1 | 20.6 | 0.8 | -14.3 | 2.9
- COC(CNc1ncnc2sc(-c3ccccc3)cc12)OC
    1.2 | 0.4 | . | . | 2.3 | 1.8
- O=[N+]([O-])c1ccc(/C=C/C2=NN(c3ccccc3)C(c3ccco3)C2)o1 (stereo not drawn)
    ? | -8.9 | -6.1 | 18.6 | 8.1 | ?
- NS(=O)(=O)c1ccc(N2N=C(c3ccccc3)CC2c2ccc(F)cc2)cc1 (stereo not drawn)
    5.9 | 47.7 | 6.7 | -1.1 | 2.6 | 33.4
- Cc1cc(=O)oc2c3c(cc(OCC(=O)NC(C)C)c12)OC(C)(C)CC3
    -29.5 | -23.0 | 4.9 | -0.6 | 0.9 | 7.5
- CN1C(=O)N(C)C2(c3ccccc3)NC(=O)NC12c1ccccc1 (stereo not drawn)
    -2.4 | -5.7 | -7.1 | 1.1 | -10.5 | 2.7
- CC(=O)N(c1ccccc1)c1nc(/C=C/C(=O)Nc2c(C)cc(C)cc2C)cs1
    -0.4 | -17.7 | 0.5 | 0.8 | -0.8 | -2.9
- C=CCn1c(=O)c(C(=O)NC2CC2)c(O)c2cc(OC)c(OC)cc21
    -4.6 | 0.0 | -13.1 | 0.0 | 2.2 | 16.0
- CCCCS(=O)(=O)/C=C\C=C/S(=O)(=O)CCCC
    ? | -4.8 | 7.4 | 3.7 | -23.2 | -4.9
- Cc1ccnc(NC(=O)c2cc(S(=O)(=O)N3CCCCC3)ccc2Cl)c1
    -21.0 | -29.6 | -12.7 | 3.1 | -7.0 | -8.0
- CCn1c(Cl)c(C=O)s/c1=N\S(=O)(=O)c1ccccc1
    1.1 | -2.7 | . | . | -44.6 | -19.5
- Cc1ccc(C(=O)OCC(=O)NC(=O)c2cccn2C)cc1[N+](=O)[O-]
    11.8 | 1.7 | . | . | -2.4 | 1.0
- CC1CCC2(CC1)NC(=O)N(CC(=O)NCc1ccc3c(c1)OCO3)C2=O (stereo not drawn)
    -7.9 | . | -3.0 | 0.2 | -11.0 | 6.2
- CC(C)C(C(=O)Nc1nccs1)c1ccccc1 (stereo not drawn)
    0.2 | 1.7 | -6.7 | 1.1 | 1.3 | 0.2
- O=C(NCCc1ccccc1)C1CCN(S(=O)(=O)N2CCC3(CC2)OCCO3)CC1
    4.6 | 16.1 | 17.6 | 3.6 | -6.2 | 5.2
- COC(=O)[C@]1(C)N[C@H](c2ccc(SC3CCCCC3)c(OC)c2)[C@@H]2C(=O)N(C)C(=O)[C@@H]21
    -30.1 | 1.2 | 4.0 | -0.5 | -10.9 | -5.0
- COc1ccc(NC(=O)Cn2nc(C(F)(F)F)c3c2CCCC3)c(OC)c1
    -21.7 | 0.2 | 18.1 | 1.2 | 11.1 | -2.2
- Cc1ccc(Nc2nnc(SC3CCOC3=O)s2)cc1 (stereo not drawn)
    -3.4 | -12.6 | -8.7 | -0.6 | -1.1 | -1.5
- Cc1nc2ccccc2n1CC(O)Cn1c2ccccc2c2ccccc21 (stereo not drawn)
    -11.9 | -0.2 | 11.3 | -0.1 | 14.9 | 4.7
- Cc1noc(C)c1S(=O)(=O)N(CC(=O)NC(C)c1ccccc1)c1ccc(C(C)C)cc1 (stereo not drawn)
    5.0 | 2.8 | 15.3 | -0.1 | -4.3 | 0.1
- CC(C)(Oc1ccc(Cl)cc1)C(=O)NC1CCN(Cc2ccccc2)CC1
    -18.9 | -2.7 | 0.0 | -0.7 | -6.9 | -12.8
